RecA splice inh: blocks M. tuberculosis RecA intein splicing; P9WHJ3; cell-free RecA intein splicing, fluorescence; inhibition, %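 (about 9 µM by stock and volumes)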; 290,000 compounds, 0.75% hits; AID 2221; in the data active = inhibition above about 30%; inconclusive = no clear call, values can overlap the other calls;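 note: 0% = vehicle wells and 100% = reference inhibitor control wells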
Target sequence (P9WHJ3 whole entry, looked up, canonical isoform): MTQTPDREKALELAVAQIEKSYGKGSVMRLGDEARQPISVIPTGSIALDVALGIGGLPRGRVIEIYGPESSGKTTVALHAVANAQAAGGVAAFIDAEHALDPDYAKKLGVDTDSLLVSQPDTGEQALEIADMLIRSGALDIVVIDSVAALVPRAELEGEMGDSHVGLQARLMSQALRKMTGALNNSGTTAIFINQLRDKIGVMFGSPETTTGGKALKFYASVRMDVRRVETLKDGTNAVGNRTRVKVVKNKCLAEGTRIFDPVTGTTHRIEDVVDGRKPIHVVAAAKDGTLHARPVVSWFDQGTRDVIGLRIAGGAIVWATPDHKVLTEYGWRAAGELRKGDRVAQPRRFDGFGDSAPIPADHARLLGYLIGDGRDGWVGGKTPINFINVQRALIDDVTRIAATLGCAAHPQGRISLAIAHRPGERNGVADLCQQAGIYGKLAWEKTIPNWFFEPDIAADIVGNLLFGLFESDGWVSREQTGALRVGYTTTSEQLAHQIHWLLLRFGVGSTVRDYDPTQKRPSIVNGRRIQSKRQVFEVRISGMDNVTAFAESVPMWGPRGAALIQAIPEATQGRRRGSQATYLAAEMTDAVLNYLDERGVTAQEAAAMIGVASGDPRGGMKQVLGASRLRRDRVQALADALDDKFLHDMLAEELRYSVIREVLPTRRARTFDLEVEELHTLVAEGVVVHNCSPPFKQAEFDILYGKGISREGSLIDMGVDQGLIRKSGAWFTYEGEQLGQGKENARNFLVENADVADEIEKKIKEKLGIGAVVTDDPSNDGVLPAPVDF
Mtb growth: M. tuberculosis H37Rv growth inhibitors, H37Rv strain (AID 1626); inhibition, % at 10 µM, or IC50 in µM where a hit was titrated; M. tuberculosis H37Rv growth inhibition; higher % means a stronger effect; 220,000 compounds, 0.95% hits;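 active = confirmed in a dose series; inconclusive = inhibition above 80% but not taken into the dose series; inactive = below 80% or under 30% at every dose of the series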;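 note: bacteria incubated seven days before Alamar blue readout; 0% = bacteria only wells and 100% = bacteria with antibiotic wells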
YopH PTP inh: inhibitors of Yersinia enterocolitica YopH tyrosine phosphatase | inhibition, %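 (about 10 µM by stock and volumes)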 | fluorescence Ex485/Em525 | 140,000 compounds, 0.16% hits;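 active = inhibition of 50% or more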;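 note: controls were vehicle for no effect and minimum signal wells for full effect; inactives centre near -20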
Arbovirus anti: blocks arbovirus infection; arbovirus infection cell-based antiviral screen; 200,000 compounds, 0.37% hits; inhibition, % at 10 µM;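 active = inhibition from about 30%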;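 note: bluetongue infection of BSR cells; cell survival read as ATP light after 72 h; 0% = infected wells without compound and 100% = uninfected wells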
Mtb betalactam: beta-lactam sensitization of Mtb H37Rv; M. tuberculosis H37Rv growth with meropenem, percent inhibition; hits of this screen are not shown here; inhibition, % at 25 µM; 330,000 compounds, 0.27% hits;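 active = about 74% or more and at least 40 points above the plate without the antibiotic, then above 30% in a dose series; inconclusive = first-round hits that could not be retested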;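 note: growth measured after seven days incubation then overnight dye step; 0% = bacteria only wells and 100% = bacteria with antibiotic; twin plates without the antibiotic show which effects depend on it; some results filed as inactive read as strong as hits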
Arbovirus anti repeat: second read-out of Arbovirus anti, no call of its own (marks repeat the call); inhibition, %; measured here: 10K subset replicate screen; many hits read low in the repeat;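 first of two repeat runs on a subset; 0% = infected and 100% = uninfected wells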
* hit, by the source's call; ? = inconclusive; · = not tested or not shown. These rows are one share of the data. The share of hits here may be higher or lower than overall.

SMILES	RecA splice inh	Mtb growth	YopH PTP inh	Arbovirus anti	Mtb betalactam	others
CCCOc1ccc(-c2csc(N)n2)cc1[N+](=O)[O-]	2.3	1%	-28	-6	-2
Cc1ccc(Cl)c(OCC(=O)NCc2ccco2)c1	·	2%	19	-3	4
COc1ccc(N2C(=O)C(CC(N)=O)N(NC(=O)CCc3ccccc3)C2=O)cc1 (stereo unspecified)	-1.1	-7%	·	0	3
CCC(=NCCCn1ccnc1)c1c(O)n(-c2ccccc2)c(=O)[nH]c1=O	-0.7	-4%	·	·	-5
Nc1ccc(Br)cc1Br	1.9	·	·	·	-4
O=C1Cc2ccccc2C(=O)N1Cc1ccccc1	90*	-10%	83*	-8	-8
O=C(CCCC(=O)n1cnc2ccccc21)n1cnc2ccccc21	-0.7	-6%	-29	6	4	Arbovirus anti repeat=2
COc1ccc(NC(=O)CN2C(=O)C(C)SC(C)C2=O)c(OC)c1 (stereo unspecified)	-4.0	-8%	-17	4	1
CN1CCN(c2ccc(CNS(=O)(=O)c3ccccc3)cc2)CC1	-4.8	-15%	·	·	-6
C=CCNC(=O)c1onc(CSc2ccccc2)c1C(=O)NCC=C	0.7	14%	·	·	2
Cc1ccn2c(=O)nc(SCC(=O)N3CCCC3)nc2c1	2.4	·	·	·	10
CC1=NN(c2ccccc2)C(=O)/C1=C\C=C1/N(C)c2ccccc2C1(C)C	1.8	24%	-23	14	42
Cn1ncc(C#N)c1NC(=O)C1CC(c2ccccc2Cl)=NO1 (stereo unspecified)	-4.5	·	·	·	-3
CCCC(=O)Nc1nnc(SCC)s1	-1.2	-9%	-18	2	4
COc1ccc(C(O)Cn2c(=N)n(CCCN(C)C)c3ccccc32)cc1 (stereo unspecified)	-0.9	6%	-15	-7	-1
COc1ccc(OC)c(-n2nnnc2SCC(=O)NCc2ccc3c(c2)OCO3)c1	-1.9	7%	-2	8	-2
Cc1cccc(Cn2nc(C)cc2NC(=O)CCCn2ccc([N+](=O)[O-])n2)c1	-2.5	3%	·	3	-5
COc1cccc(CN2CCN(C(=O)c3cccc4ccccc34)CC2)c1	-1.9	·	·	·	-2
COc1cccc(CNC(=O)CN2C(=O)CSc3ccc(S(=O)(=O)N4CCCC4)cc32)c1	0.2	-8%	·	-2	-2
COc1ccc(-c2ncnc(C(F)(F)F)c2-c2csc(C)n2)c(O)c1	3.0	-4%	·	·	2
COc1cc(NC(=O)C2CCCN(c3ncnc4c3nc3n4CCCCC3)C2)cc(OC)c1OC (stereo unspecified)	-0.4	·	·	·	2
Cc1c(C=O)c2ccccc2n1Cc1ccc([N+](=O)[O-])cc1	3.5	67%	-14	9	-1
COc1ccc(CCNC(=O)c2cnc3ccccn3c2=O)cc1	2.4	3%	-27	1	-1
O=[N+]([O-])c1ccc(OCCCCN2CCc3ccccc3C2)cc1	-1.4	·	·	·	2
S=c1[nH]nc(-c2ccco2)n1/N=C/c1ccc(Cl)c(Cl)c1	0.4	7%	-30	8	5
O=C(Nc1ccc(S(=O)(=O)N2CCCC2)cc1)c1cccs1	2.2	-6%	·	-3	-1
Cc1ccccc1SCCNC(=O)c1ccccc1Br	7.0	10%	·	-2	3
Cc1ccc(C(=O)COC(=O)CNC(=O)c2ccco2)cc1	-2.8	4%	-33	10	-4
Cc1ccc(Cn2c(C3CCCN3c3nc(C)cs3)nc3cc(C(F)(F)F)ccc32)cc1 (stereo unspecified)	4.8	·	·	·	62
CCCOc1ccc(NC(=O)C2CCCNC2=O)cc1 (stereo unspecified)	-7.5	-3%	-25	1	-6
COc1cc(CN2CCCCCC2)c([N+](=O)[O-])cc1OC	-2.6	·	·	·	-5
Cc1cc(C)cc(-n2c(C)cc(/C=N/NC(=O)CN(c3c(C)cccc3C)S(C)(=O)=O)c2C)c1	-5.2	2%	-20	-11	-1
CN(C)S(=O)(=O)c1cccc(NC(=O)CCCc2nc3ccccc3c(=O)[nH]2)c1	-0.9	·	·	·	-9
COCCn1c(SCc2ccc(F)cc2)nc2c1c(=O)[nH]c(=O)n2C	0.5	·	·	·	-1
Cc1cc(C)c2c3c(sc2n1)C(=O)N(C)CC(=O)N3	-0.9	-3%	-43	-2	-6
CCOC(=O)c1c(NC(=O)CC(C)C)sc(C(C)=O)c1C	-2.1	8%	9	-9	3
CN1CCN(S(=O)(=O)c2cccc(C(=O)N(Cc3nnc(-c4ccccc4Cl)o3)C3CC3)c2)CC1	3.4	·	·	·	-16
Cc1c(C=Nc2ccc(S(=O)(=O)N(C)C)cc2)c(O)[nH]c(=O)c1C#N	-2.0	·	·	·	5
COc1cccc(OCC(O)CN2CCN(c3ccc(Cl)cc3)CC2)c1 (stereo unspecified)	2.4	·	·	·	12
Cc1cc(C)nc(NC2=NCC(=O)N2c2ccc3c(c2)OCCO3)n1	-0.6	-1%	25	6	-7

Six compounds out of the list, ordered by heavy-atom count, falling:
SMILES	RecA splice inh	Mtb growth	YopH PTP inh	Arbovirus anti	Mtb betalactam	others
Cc1ccc(Cn2c(C3CCCN3c3nc(C)cs3)nc3cc(C(F)(F)F)ccc32)cc1 (stereo unspecified)	4.8	·	·	·	62
CN(C)S(=O)(=O)c1cccc(NC(=O)CCCc2nc3ccccc3c(=O)[nH]2)c1	-0.9	·	·	·	-9
COc1cccc(OCC(O)CN2CCN(c3ccc(Cl)cc3)CC2)c1 (stereo unspecified)	2.4	·	·	·	12
O=[N+]([O-])c1ccc(OCCCCN2CCc3ccccc3C2)cc1	-1.4	·	·	·	2
S=c1[nH]nc(-c2ccco2)n1/N=C/c1ccc(Cl)c(Cl)c1	0.4	7%	-30	8	5
CCCOc1ccc(NC(=O)C2CCCNC2=O)cc1 (stereo unspecified)	-7.5	-3%	-25	1	-6

Further results follow.
SMILES	RecA splice inh	Mtb growth	YopH PTP inh	Arbovirus anti	Mtb betalactam	others
COc1ccc(/C=C(\C#N)C(=O)N2CCOCC2)cc1Br	-3.9	·	-20	-1	2
Cc1ccc(C)c(NC(=O)CN(C)C(=O)c2cc(-c3cccs3)nn2-c2ccccc2)c1	5.7	·	·	·	-8
O=C(NCCc1csc(-c2cccc(F)c2)n1)c1ccco1	1.7	·	·	·	3
Cc1cc(NC(=O)CN(C)C)c([N+](=O)[O-])cc1C	·	6%	·	-2	0
CN(Cc1ccccc1F)Cc1cc(=O)oc2cc(O)c(Cl)cc12	-369	·	·	·	-9
COCCn1c(SCC(=O)Nc2cc(C)on2)nc2c(c1=O)SCC2	-0.3	·	·	·	-3
CCOC(=O)C1CCCN(Cc2ccc(OCc3ccccc3)cc2)C1 (stereo unspecified)	2.0	·	·	·	-3
O=C(COc1ccccc1/C=C1\SC(=O)NC1=O)Nc1ccccc1	7.7	-6%	·	20	-6
ONC(=Nc1ccc(Cl)cc1)c1ccccc1	28	-11%	4	-7	8
O=[N+]([O-])c1ccc(COc2cccc3cccnc23)cc1	-0.7	·	·	·	3
CN(C)S(=O)(=O)c1cccc(C(=O)NC(=S)N(CCC#N)Cc2cccnc2)c1	-1.8	0%	·	7	-10
COCCn1c(SCc2nc3cc(OC)c(OC)cc3c(=O)[nH]2)nnc1-c1ccncc1	-6.2	-6%	-25	-6	-10
O=C(NNc1nc2ccccc2s1)c1ccc(F)cc1	-4.1	?	-11	-14	99
O=C(CCc1nnc2n(Cc3ccccc3)c(=O)c3ccccc3n12)NCCCN1CCCCC1	-0.3	·	·	·	-2
COc1ccc(NC(=O)CSc2nnc(-c3ccco3)c(-c3ccco3)n2)cc1OC	1.3	·	·	·	-2
CNC(=O)c1sc(Nc2cc(C)ccc2C)nc1C	6.9	4%	·	-2	2
CCc1nc2ccc(C(=O)NCCCN3CCN(c4ccccc4F)CC3)cc2nc1CC	0.5	·	·	·	7
CCn1cc(/C=N\NC(=O)Cc2ccc([N+](=O)[O-])cc2)c(C)n1	-3.4	1%	-24	3	7
COc1cccc(/C=N/NC(=O)c2cc3c(OC)cccc3[nH]2)c1OC	-0.6	6%	-11	0	-2
CCn1cc(C(=O)NCc2ccco2)c(=O)c2cc(S(=O)(=O)N3CCCCCC3)ccc21	2.3	-11%	-22	-21	20
CCOc1ccc(NC(=O)C2CCCN(c3cnccn3)C2)cc1 (stereo unspecified)	0.7	·	·	·	4
COc1ccccc1NC(=O)C1CCCN(S(=O)(=O)c2ccc(-n3cnnn3)cc2)C1 (stereo unspecified)	-3.4	·	·	·	0
CCOC(=S)SCC(=O)Nc1nccs1	6.5	10%	·	-4	-1
Cc1c(C)c2c(OCC(=O)Nc3ccc(CCO)cc3)cc3c(c2oc1=O)CCC(C)(C)O3	0.9	·	·	·	-3
Cc1cc(S(=O)(=O)NC2CCCC2)ccc1-n1cnnn1	-2.2	·	·	·	-4
O=C(CN1CCOCC1)NNc1c2ccccc2nc2ccccc12	-0.1	2%	·	·	3
O=C(NC(=C(Cl)Cl)P(=O)(c1ccccc1)c1ccccc1)c1ccccc1	-2.8	-3%	-17	-1	-2
CCCCCNCC(=O)Nc1cc(C(F)(F)F)ccc1OCCOC	-1.2	-7%	·	-9	3
CCOc1ccc(S(=O)(=O)N2CCCCC2)cc1NC(=O)c1c(CC)noc1C	-1.0	·	·	·	3
O=c1ccnc(SCCc2ccc([N+](=O)[O-])cc2)[nH]1	-1.0	·	·	·	-5
Cc1c(Cl)c([N+](=O)[O-])nn1CC(=O)N1CCCc2ccccc21	-1.4	0%	-32	3	-4
O=C(NC1=NCCS1)c1ccccc1F	-0.5	·	·	·	3
CCCn1nnc(NC(=O)COc2cc(C)ccc2C(C)C)n1	3.0	4%	20	0	4
COc1ccc2c(c1)cc1c(=O)n(CC(=O)NCCCN3CCOCC3)nc(C)n12	-0.5	·	·	·	-1
COc1cccc(OCCCN2CCCCCC2)c1	-1.6	5%	·	-1	-1
Cc1ccc(N2CC(C(=O)NCc3n[nH]c(=O)c4ccccc34)CC2=O)cc1C (stereo unspecified)	-0.5	·	·	·	-8
CC(C)(C)OC(=O)N1CSC[C@H]1C(=O)NC[C@H](CC(=O)O)c1ccc(Cl)cc1	-1.0	·	·	·	8
CN(Cc1nc(-c2ccc(Cl)cc2)no1)C(=O)CCN1C(=O)[C@H]2CC=CC[C@H]2C1=O	2.7	·	·	·	0
CCc1cc2c(SCC(=O)Nc3ncc(Cl)c(C)c3Cl)ncnc2s1	7.6	4%	-24	1	-3
CCOC(=O)C1=C(N)Oc2c(oc(CO)cc2=O)C1c1ccc(F)c(F)c1 (stereo unspecified)	4.0	2%	·	1	-10
CC(Sc1nc2ccccc2n1C)C(=O)NC(c1ccccc1)c1ccccc1 (stereo unspecified)	0.7	2%	-2	2	0
Cc1ccc(-n2c(CNCc3ccc(F)cc3)nc3ccccc3c2=O)cc1	-1.7	·	·	·	10
COc1ccc(N(CC(=O)NCc2ccc(Cl)cc2)S(=O)(=O)c2ccccc2[N+](=O)[O-])c(OC)c1	4.5	4%	·	-2	-7
Cc1ccc(C(=O)NCCc2nnc3ccc(SCC(=O)NCc4ccc(F)cc4)nn23)cc1	3.7	·	·	·	-6
CCc1ccccc1NC(=O)CN(C)C(=O)CN1C(=O)NC2(CCCCCC2)C1=O	-3.7	-12%	-35	14	7
COc1ccc([C@H]2[C@@H]3C=CCC[C@@]3(C)C(=O)N2Cc2ccccc2)cc1Cl	27	4%	·	·	-3
Cc1cc(C)cc(N(C(=O)Cc2cccs2)C(C(=O)NC2CCCC2)c2ccc(C)o2)c1 (stereo unspecified)	·	-3%	-17	-1	4
CCOc1ccc(CNCc2cccnc2)cc1	0.9	-2%	-2	11	-5
CC(NC(=O)COC(=O)c1cc(Cl)nc(Cl)c1)c1ccccc1 (stereo unspecified)	3.4	9%	·	2	8
CS(=O)(=O)N(CC(=O)N1CCN(c2cccc(Cl)c2)CC1)c1ccccc1	1.6	-6%	-4	10	-5
O=C(c1ccc(C23CC4CC(CC(C4)C2)C3)o1)N1CCOCC1	2.3	-6%	19	2	-1
Cn1nnnc1SCCNC(=O)C1CCC(=O)N(Cc2ccc(Cl)cc2)C1 (stereo unspecified)	-0.2	·	·	·	-8
Cc1ccc(-c2ccc(C(=O)O)c(C)n2)cc1	-2.5	-6%	-30	-1	-3
CCOC(=O)Cc1csc(SCC(=O)Nc2cccc(Cl)c2)n1	0.5	9%	0	2	49
CCN(CC)C(=O)CSc1nnc(-c2c[nH]c3ccccc23)o1	-3.7	·	·	·	10
CCC(=O)N1CCN(c2ccc(Cl)cc2NC(=O)Cc2ccc(Cl)cc2)CC1	4.8	6%	-41	-6	41
Nc1cc(=O)[nH]c(SCC(=O)Nc2ccc(Oc3ccccc3)cc2)n1	-1.9	·	·	·	44
CCOC(=O)c1sc(Nc2ccc(Br)cc2)nc1C	7.8	8%	·	·	-2
Cc1ccc(Cl)c(OCC(O)CN(CCO)CCO)c1 (stereo unspecified)	-4.3	-3%	-28	-2	5
Cc1cccc(OCCNc2nc3c(c(=O)n(C)c(=O)n3C)n2C)c1	0.7	2%	-45	2	3
